Compound activity (PubChem BioAssay)
PrP 5UTR inh: inhibition of PrP 5' UTR reporter expression; cell-based PrP 5' UTR mRNA reporter, plate reader; AID 488862, 2010; 340,000 tested, 0.35% active; inhibition, % (concentration not given with the values);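 active means every replicate at 50% or more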;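 further: 0 = median of the neutral control wells; tested in H4 reporter cells; numbers are from one replicate; inactives centre near -14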
Sa ugtP lethal: growth inhibition of ugtP-null S. aureus, primary screen, RN4220 ugtP deletion, OD600; AID 1259309, 2017; growth inhibition, % (concentration not given with the values); 16 h; some inactives read as strong as hits; 330,000 tested, 0.54% active;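 active means z-score under -3 and OD600 up to 0.15 on both plates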;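 further: plate controls were untreated wells for no effect and antibiotic for full effect; wells of about 80 µL received 100 nL stock; the first replicate is given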
RN4220 kill: growth inhibition of S. aureus RN4220, primary screen, OD600. AID 1259311, 2017. inhibition, % (test concentration not listed). 16 h. 330,000 tested, 0.33% active;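 active means z-score of -3 or lower and OD600 up to 0.18 on both plates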;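 further: plate controls were untreated cells for no effect and reference antibiotic for full effect; stock transfer was 100 nL into about 80 µL; one replicate is shown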
BJeLR lethal: MLPCN primary cell-based screen for lethality selective to Ras in HRASV12 cells. BJeLR (HRASV12) viability, CellTiter-Glo ATP luminescence, 48 h; reference of the scale not given here. inhibition, % (concentration not given with the values). 300,000 tested, 0.17% active. AID 1554, 2009;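 active means replicate mean above 50%; inconclusive means above 50% but judged a plate artefact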;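 further: 50 nL library stock added to about 25 µL; numbers are from one replicate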
Mtb hypoxia inh: PubChem AID 1159583; M. tuberculosis hypoxia-regulated fluorescent reporter, fluorescence; fluorescence inhibition, % (no concentration beside the values); 300,000 tested, 0.1% active;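 active means 35 to 45% if threefold the growth effect, above 45% if 1.5-fold the growth effect; inactive means the rest, general growth blockers included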;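 further: wells of about 50 µL received 100 nL stock; 0% = vehicle wells and 100% = reference inhibitor wells; whole bacteria with a GFP reporter of the hypoxia response; strong numbers were not always called active; many hits fall short of the cut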
Bead autofluor: flagged as autofluorescent in microsphere protease counterscreen; compound autofluorescence counterscreen, microsphere flow cytometry; active compounds read high; fluorescence intensity (test concentration not listed); 360,000 tested, 3.1% active;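 active means at least 3 SD above the mean of all compounds, about 16000 in these data; inconclusive means too few beads counted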;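 further: 100 nL of 1 mM stock went into each well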
Mtb hypoxia inh growth: recorded beside Mtb hypoxia inh, whose call it bears; growth inhibition, %; measured here: M. tuberculosis growth (absorbance);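 0% = vehicle and 100% = reference antibiotic; read after six days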
* marks the source's active call; other numbers are inactive results; ? = inconclusive; · = not tested or not shown.

SMILES	PrP 5UTR inh	Sa ugtP lethal	RN4220 kill	BJeLR lethal	Mtb hypoxia inh	Mtb hypoxia inh growth	Bead autofluor
CC(=O)c1sc(NC(=O)C2CCN(C(=O)c3ccc(F)cc3)CC2)nc1-c1ccccc1	-10	6	5.7	0	-4	8	5941
Cc1ccccc1CC1(CO)CCCN(C(=O)CCC(F)(F)F)C1 (configuration not stated)	-15	4	0.8	3	22	11	4526
COc1cccc(/C=N/NC(=S)NC2CC3CCC2C3)c1OC (configuration not stated)	-35	·	·	-6	·	·	5472
COc1ccc(N(CC(=O)NC(C)(C)C)S(=O)(=O)c2ccccc2)cc1OC	-30	1	6.8	3	3	7	10176
CCc1nnc(NC(=O)c2ccc(COc3ccccc3)o2)s1	-5	5	2.7	-11	2	1	17254*
Cc1ccc(C(=O)CN(C(=O)c2ccc(Cl)c(Cl)c2)N2C(=O)C3CCCCC3C2=O)cc1 (configuration not stated)	-21	5	3.2	-9	4	11	10644
Nc1nonc1-n1nnc(C(=O)N/N=C/c2ccc(OCc3ccccc3)cc2)c1COc1ccc(F)cc1	-6	·	·	5	·	·	5609
COc1cc(-n2c(-c3ccccc3)n[nH]c2=S)c(OC)cc1Cl	-27	5	6.8	-15	14	10	2262
O=C(CSCc1ccccc1)Nc1ccc(F)cc1F	-30	3	0.8	-3	3	0	3826
COC(=O)c1sccc1NC(=O)c1csc2c1CCCC2	-30	50	-1.9	-1	10	10	11314
Cc1nc(N)nc(NN=Cc2c(F)cccc2Cl)n1	·	15	1.8	·	5	11	·
Cc1ccc(-n2ccnc2SCC(=O)c2c(N)n(C3CC3)c(=O)[nH]c2=O)cc1C	-20	2	0.0	·	-5	3	5378
O=[N+]([O-])c1cccc(-c2noc(-c3ccco3)n2)c1	-104	-6	3.7	6	3	6	3535
CCCc1cc(=O)oc2cc(C)cc(OCC(=O)NCc3cccnc3)c12	-10	-3	4.3	2	-2	-1	5731
N#CC1(NC(=O)COC(=O)c2ccc(Cl)nc2)CCCCC1	4	-1	0.0	-15	5	7	5657
COc1ccc(CNCC(O)COCc2cccs2)cc1 (configuration not stated)	-20	-5	-0.7	1	-6	2	6149
O=C(O)c1ccc(NN=Cc2cn(Cc3ccccc3F)c3ccccc23)cc1	·	11	-4.1	·	11	6	·
COc1ccccc1C(=O)CN1C(=O)NC2(CCCCCC2)C1=O	-8	3	0.4	·	-4	12	3994
Cc1cc(C(=O)COC(=O)Cc2n[nH]c(=O)c3ccccc23)c(C)n1-c1cccc(C(F)(F)F)c1	-9	11	-1.8	-1	8	-1	2795
Cc1nn(Cc2c(Cl)cccc2Cl)c(C)c1NC(=O)Cn1nc([N+](=O)[O-])c(Cl)c1C	-10	-5	9.1	-1	14	2	2248

Limited to BJeLR lethal, RN4220 kill and Bead autofluor, for some of the entries so far:
compound,BJeLR lethal,RN4220 kill,Bead autofluor
N#CC1(NC(=O)COC(=O)c2ccc(Cl)nc2)CCCCC1,-15,0.0,5657
COc1ccc(CNCC(O)COCc2cccs2)cc1 (configuration not stated),1,-0.7,6149
O=C(O)c1ccc(NN=Cc2cn(Cc3ccccc3F)c3ccccc23)cc1,·,-4.1,·

Going on with the list:
SMILES	PrP 5UTR inh	Sa ugtP lethal	RN4220 kill	BJeLR lethal	Mtb hypoxia inh	Mtb hypoxia inh growth	Bead autofluor
CCOC(=O)c1c(NC(=O)c2cc3n(n2)C(C(F)(F)F)CC(c2ccccc2)N3)sc(C)c1C (configuration not stated)	-20	6	9.4	-4	6	2	6721
Cc1ccc2c(c1)C1(C(=O)N2C)N2CC3(C)CN1CC(C)(C2)C3=O (configuration not stated)	-10	-4	-1.9	-1	-4	4	7228
C=CCn1c(N)c(C(=O)NCc2ccco2)sc1=S	-4	6	3.4	7	3	3	21000*
COCCN1CCn2c(nc3cc(NC(=O)c4cccs4)ccc32)C1	-54	1	1.1	1	7	2	5348
CCC(CC)C(=O)Nc1cccc(/C(C)=N\NC(=O)c2ccc(C)s2)c1	-21	·	·	-1	·	·	?
O=C(NC1CC1)c1ccc(CSCc2cccc(F)c2)o1	-35	11	3.9	5	12	7	5967
CCOc1ccccc1Oc1cn[nH]c1-c1ccc(O)cc1O	-8	-6	1.0	8	14	1	4034
Cc1ccsc1C(=O)NCCC(c1ccccc1)c1ccccc1	-10	32	-4.1	4	-5	-3	2046
O=C(O)/C=C/C(=O)Nc1ccc(O)cc1	42	13	4.0	-8	6	6	4184
COc1cc(OC)c([N+](=O)[O-])cc1C=NNC(=O)c1ccncc1	·	9	3.1	·	·	·	·
Cc1ccc(C(=O)N(C)c2ccc(OCC(=O)N3c4ccc(C)cc4C4CN(C)CCC43)cc2)cc1 (configuration not stated)	-38	-6	-6.2	-2	-7	-4	3541
CCOC(=O)C1=C(C)N(CCCC(=O)O)C(=O)NC1c1ccc(Cl)cc1 (configuration not stated)	-13	-2	-2.6	1	-3	-2	3777
COc1ccccc1CN1CCN(S(=O)(=O)c2ccc(C)cc2)CC1	-29	7	3.6	-1	-8	3	5911
CC(C)Oc1ccc(S(=O)(=O)N2CCOCC2)cc1NC(=O)C1=NN(c2ccccc2)C(=O)CC1	7	-1	1.7	·	-7	11	5832
O=C(c1ccccc1)c1ccc(Cn2cc(-c3ccccc3)nn2)cc1	-26	10	5.3	13	13	13	3808
O=C1Nc2ccccc2Nc2ccccc21	-24	11	-1.9	2	8	5	3600
C/C(=N\Nc1nc2ccccc2[nH]1)c1ccc(N2CCOCC2)cc1	-29	·	·	21	·	·	4150
CS(=O)(=O)c1ccc([C@@H](O)[C@@H](CO)NC(=O)C(Cl)Cl)cc1	-7	·	·	-8	·	·	4327
CCOc1cc(/C=N/NC(=O)C(=O)NCCCOC(C)C)cc(Br)c1O	-44	·	·	1	·	·	2072
Cc1cc(C)nc(NC(=O)c2c(Cl)cccc2Cl)n1	-16	1	2.3	20	5	-6	3275
Clc1ccccc1Oc1cnc2ccccc2n1	-9	28	4.5	-5	5	9	6049
C#CCn1c(=NC(=O)c2ccc(S(=O)(=O)N3CCc4ccccc4C3)cc2)sc2cc(S(N)(=O)=O)ccc21	-10	-8	2.7	9	1	-18	9005
CCN(CC)S(=O)(=O)c1ccc(OC)c(NC(=O)CC2CCCC2)c1	-10	12	1.8	2	2	9	3486
O=C(c1ccco1)N1CCN(CCOCCOc2cccc3ccccc23)CC1	-76	-1	6.6	-6	8	5	7913
CCOC(=O)Cn1c(=O)oc2cc(S(=O)(=O)N3CCc4ccccc43)ccc21	-15	-8	2.1	-4	-3	1	6005
Cc1cc(C)c(C)c(S(=O)(=O)N2CCC(C(=O)NNC(=O)c3ccccc3O)CC2)c1C	-8	11	18	0	3	2	?
COc1ccc(C=NNc2nc3ccccc3[nH]2)cc1OC	·	-5	1.6	·	6	-2	·
COCCNC(=O)C(C)N1c2cccc3cccc(c23)S1(=O)=O (configuration not stated)	-32	3	1.3	-14	·	·	4879
c1ccc(COc2ccc3nocc3c2)cc1	-50	18	13	-3	19	13	3457
COc1ccccc1C(=O)NCC(=O)Nc1ccc2c(c1)OCO2	-13	2	1.2	·	12	10	6069
Cc1cccc(NC(=O)c2ccc3c(c2)C(=O)N(Cc2cccnc2)C3=O)c1C	-21	5	1.7	-1	12	0	5705
Cc1ccccc1CN1CCN(CC2CC2)CC1CCO (configuration not stated)	-9	2	2.5	-4	10	5	·
COc1ccc(NC(=O)C(=O)N/N=C(\C)CC(=O)Nc2cc(C)ccn2)c(OC)c1	-18	·	·	-1	·	·	5157
C#CCOCCOCCOCCNc1nc(N2CCN(C(=O)C(C)n3cc(CCCN=C(N)N)nn3)CC2)nc(N2CCN(C(=O)C(C(C)CC)n3cc(CCC(=O)O)nn3)CC2)n1 (configuration not stated)	·	-3	6.2	·	12	9	·
O=C(Nc1cccnc1)c1cc(-c2cccc(Cl)c2)on1	-17	4	7.5	-8	11	0	5486
COc1ccc(-c2nc(CS(=O)CC(=O)N3CCOCC3)c(C)o2)cc1OC (configuration not stated)	9	7	3.4	-1	8	-7	4381
Cc1onc(-c2c(Cl)cccc2Cl)c1NC(=O)NN(C)c1ccc([N+](=O)[O-])cn1	-2	-1	1.7	-14	9	10	4520
CC(C)CCN(C(=S)NC(=O)C1CCCCC1)c1c(N)n(Cc2ccccc2)c(=O)[nH]c1=O	-15	5	-0.9	2	11	8	4425
Cc1cc(C)c(S(=O)(=O)c2ccccc2)c(OC(=O)c2ccc(Cl)cc2Cl)n1	0	5	0.6	·	·	·	4920
Cc1cccc(N2CCN(C(=O)CCCn3c(=O)c4cccn4c4cccnc43)CC2)c1C	-14	-1	-3.7	7	-1	3	5086
CNC(=O)NC(=O)COC(=O)c1ccccc1OCc1ccccc1	-10	3	16	-15	9	4	4656
O=C(NN=Cc1ccccn1)c1ccc(S(=O)(=O)N2CCCCCC2)cc1	·	7	2.9	·	-9	7	·
CC(=O)Cc1nsc(NC(=O)c2ccc(Cl)cc2Cl)n1	-25	0	-0.1	2	-6	10	3201
COc1ccccc1CNC(=O)CS(=O)(=O)c1ccc(C)cc1	-14	4	3.0	-6	2	-2	6986
CC(C)C(=O)Nc1cc2c(cc1C(=O)c1ccccc1)OCCO2	12	3	1.6	9	·	·	2565
Nc1nncn1C(=O)c1cc(Br)ccc1Cl	-18	-2	0.5	-12	3	9	9504
Cc1cc(C)n(CC(=O)O)n1	-4	1	-1.1	-8	·	·	3387
COc1ccc(C(=O)NCC(=O)N/N=C/C(C)=C/c2ccccc2)cc1OC	-20	·	·	4	·	·	2087
CCCn1c(CCC(=O)O)nc2cc(S(N)(=O)=O)ccc21	-28	5	1.2	4	6	8	4863
Cc1cc(N2CCCCC2)nc(N2CCOCC2)n1	-16	1	0.8	-6	10	-3	9318
Additional records follow:
SMILES	PrP 5UTR inh	Sa ugtP lethal	RN4220 kill	BJeLR lethal	Mtb hypoxia inh	Mtb hypoxia inh growth	Bead autofluor
CCn1c(SCC(=O)Nc2ccc(S(=O)(=O)Nc3ccccn3)cc2)nnc1-c1ccncc1	-18	1	-1.2	0	·	·	5810
Cc1onc(-c2ccccc2Cl)c1C(=O)Nc1c(C)n(C)n(-c2ccccc2)c1=O	-20	2	5.4	-1	12	6	7972
O=C1NC(NS(=O)(=O)c2ccc(Cl)cc2)(C(F)(F)F)C(=O)N1Cc1cccnc1 (configuration not stated)	-19	4	3.7	-3	11	11	2123
Cc1ccc(Cn2ncc3c(N4CCOCC4)ncnc32)cc1	-19	-2	0.0	·	14	16	5756
CCC1=C(C)C(N2CCOCC2)=NP(N2CCOCC2)(N2CCOCC2)=N1	-21	0	1.7	-1	·	·	4703
COC(=O)CSc1nc2nc(C)c(Br)cc2[nH]1	-27	0	3.7	-9	8	6	9087
O=C(Nc1ccccc1C(=O)N1CCOCC1)c1cccc(S(=O)(=O)N2CCCC2)c1	-5	1	-12	-8	-1	-1	3078
CN(C)c1ccc(/C=C/c2nc3ccccc3c(=O)n2CCO)cc1	-6	-9	-1.0	4	-4	-3	4289
CC1(C)N=C(N)N=C(N)N1c1cccc(CN)c1	-17	7	6.2	-1	-3	4	4367
CCCNS(=O)(=O)c1ccc(CCC(=O)NCc2ccco2)cc1	-15	-1	2.8	-8	7	10	10288
CC(=O)N1C(=O)CC(C)N(C(C)=O)c2ccc([N+](=O)[O-])cc21 (configuration not stated)	5	3	1.5	-1	2	6	2525
COC1Cc2ccccc2N(C(=O)N2CCN(CCO)CC2)c2ccccc21 (configuration not stated)	3	-6	0.5	2	·	·	3020
O=C(CN1CCSCC1)NN=Cc1ccccc1F	·	5	0.1	·	6	0	·
O=C(CN1C(=O)C2C3C=CC(C3)C2C1=O)Nc1nc(SCc2ccc(Cl)cc2)n[nH]1 (configuration not stated)	-9	6	1.5	-7	4	5	5396
CC1(C)CC(NC(=O)c2cc(COc3cccc(C(F)(F)F)c3)on2)CCO1 (configuration not stated)	-42	1	1.3	-11	14	3	4005
COc1ccc(-c2ccnc(SCC(=O)N3CCOCC3)n2)cc1	-30	0	2.1	-6	15	1	5852
Cc1c(Cl)c([N+](=O)[O-])nn1CC(=O)NCc1ccco1	-14	-4	-17	6	21	-19	2974
Cc1nc(CCNC(=O)c2ccccc2)cs1	-14	0	7.1	-12	15	12	2475

Retrieved by compound from the list above, 2 records:
SMILES	PrP 5UTR inh	Sa ugtP lethal	RN4220 kill	BJeLR lethal	Mtb hypoxia inh	Mtb hypoxia inh growth	Bead autofluor
O=C1Nc2ccccc2Nc2ccccc21	-24	11	-1.9	2	8	5	3600
c1ccc(COc2ccc3nocc3c2)cc1	-50	18	13	-3	19	13	3457
